VDR inh – inhibitors of human vitamin D receptor; 400,000 tested, 0.93% active; VDR-SRC2-3 peptide fluorescence polarization, 2 h; P11473; Potency, µM, for the others: max response, negative = inhibition, actives largely listed as inhibitors; active = well fitted inhibition curve with a large enough effect; inconclusive = small, poorly fitted or top-dose-only effect, or another doubt; inactive = no such curve, though single readings can be large or run the other way; also: series mostly up to about 120 µM
Target sequence (P11473 whole entry, looked up): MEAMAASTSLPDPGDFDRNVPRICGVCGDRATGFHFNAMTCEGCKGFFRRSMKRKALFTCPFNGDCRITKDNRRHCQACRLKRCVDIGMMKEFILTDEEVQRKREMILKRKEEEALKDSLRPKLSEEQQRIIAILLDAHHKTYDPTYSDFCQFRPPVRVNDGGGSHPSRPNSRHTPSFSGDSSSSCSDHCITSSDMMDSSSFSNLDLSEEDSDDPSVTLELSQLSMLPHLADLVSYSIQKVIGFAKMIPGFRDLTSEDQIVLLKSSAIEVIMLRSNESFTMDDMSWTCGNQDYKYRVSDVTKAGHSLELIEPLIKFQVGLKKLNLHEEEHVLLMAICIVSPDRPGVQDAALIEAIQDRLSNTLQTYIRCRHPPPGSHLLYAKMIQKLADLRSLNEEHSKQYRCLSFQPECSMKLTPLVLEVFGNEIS
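The screen uses fluorescence polarization to detect compounds that interfere with recruitment of the SRC2-3 coactivator peptide to VDR; plates are read after 2 h at room temperature.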
Numbers without * were called inactive; ? = inconclusive; & = joins results of further samples. % is scaled to controls: 0 for no effect and ±100 for the full control effect; potency is read from the fitted curve at half-maximal effect.

VDR inh,Molecule
-1%,COc1ccc(-n2nc(C(=O)NCC(=O)N3CC(C)CC(C)C3)c3ccccc3c2=O)cc1 (stereo unspecified)
14%,CCN1CCN(C(=O)C2(NC(=O)Nc3ccccc3Cl)CCCCC2)CC1
-3%,COc1ccc(N2CCN(Cc3nc4cc(Cl)ccc4c(=O)[nH]3)CC2)cc1
14%,COc1ccc(Nc2cc(C(=O)NCCCN3CCN(c4ccc(OC)cc4)CC3)c3ccccc3n2)cc1
19%,COc1ccc(CSCCN)cc1Cl
-10%,COc1cccc(CN(C)C(=O)c2ccc(NC(=O)CC3SC(N4CCCCC4)=NC3=O)cc2)c1OC (stereo unspecified)
3%,O=C(COc1ncnc2ccc(Br)cc12)NC1CCCC1
10%,COc1ccc(OC)c(CCNC(=O)CCc2cn(Cc3cc(C)ccc3C)c3ccccc23)c1
7%,O=Cc1ccccc1-n1cncn1
5%,Cc1cccc(C(=O)Nc2ccc(C(=O)OCc3cc(=O)n4c(C)csc4n3)cc2)c1
-24%,COc1ccc(NC(=O)CN(C)C(=O)/C=C/c2cn(-c3ccccc3)nc2-c2ccc(F)cc2)cc1
0%,COc1ccccc1C(C)NCC(=O)Nc1c(F)cccc1F (stereo unspecified)

(continued)
VDR inh,Molecule
3%,CCOC(=O)c1c(CC(C)C)csc1NC=O
-23%,Cc1cc(C)n(CC(O)COc2ccc(C(C)C)c(C)c2)n1 (stereo unspecified)
-12%,Cc1nnc2ccc(N3CCCCC3)nn12
-14%,Cc1ccc(S(=O)(=O)N2CCOCC2)cc1NC(=O)CN1CCN(c2ccc(O)cc2)CC1
-5%,CC(=O)NC(=S)Nc1cc(C(=O)O)ccc1Cl
-29%,c1nc(N2CCNCC2)c2cc(-c3ccoc3)ccc2n1
2%,Cc1ccc(-c2c(C)n([O-])c3c([n+]2=O)CCCCC3)o1
12%,CCC(C)NC(=O)C1CCN(S(=O)(=O)N2CCCC2)CC1 (stereo unspecified)
-6%,CC(C(=O)Nc1cccc(C#N)c1)n1nc(-c2ccccc2)c2c(c1=O)CCCC2 (stereo unspecified)
12%,Cc1ccc2sc(N(CCN(C)C)C(=O)c3ccc(S(=O)(=O)N4CC(C)OC(C)C4)cc3)nc2c1C (stereo unspecified)
5%,COc1ccccc1/C=C/CN1CCCC(CO)(Cc2cccc(Cl)c2)C1 (stereo unspecified)
4%,Cc1cccc(NC(=O)NNC(=O)CCc2ccccc2)c1

A second format for some results above:
| SMILES | VDR inh |
| --- | --- |
| O=Cc1ccccc1-n1cncn1 | 7% |
| Cc1cccc(C(=O)Nc2ccc(C(=O)OCc3cc(=O)n4c(C)csc4n3)cc2)c1 | 5% |
| COc1ccc(NC(=O)CN(C)C(=O)/C=C/c2cn(-c3ccccc3)nc2-c2ccc(F)cc2)cc1 | -24% |
| COc1ccccc1C(C)NCC(=O)Nc1c(F)cccc1F (stereo unspecified) | 0% |
| CCOC(=O)c1c(CC(C)C)csc1NC=O | 3% |
| Cc1cc(C)n(CC(O)COc2ccc(C(C)C)c(C)c2)n1 (stereo unspecified) | -23% |
| Cc1nnc2ccc(N3CCCCC3)nn12 | -12% |
| Cc1ccc(S(=O)(=O)N2CCOCC2)cc1NC(=O)CN1CCN(c2ccc(O)cc2)CC1 | -14% |
| CC(=O)NC(=S)Nc1cc(C(=O)O)ccc1Cl | -5% |
| c1nc(N2CCNCC2)c2cc(-c3ccoc3)ccc2n1 | -29% |
| Cc1ccc(-c2c(C)n([O-])c3c([n+]2=O)CCCCC3)o1 | 2% |
| CCC(C)NC(=O)C1CCN(S(=O)(=O)N2CCCC2)CC1 (stereo unspecified) | 12% |
| CC(C(=O)Nc1cccc(C#N)c1)n1nc(-c2ccccc2)c2c(c1=O)CCCC2 (stereo unspecified) | -6% |
| Cc1ccc2sc(N(CCN(C)C)C(=O)c3ccc(S(=O)(=O)N4CC(C)OC(C)C4)cc3)nc2c1C (stereo unspecified) | 12% |
| COc1ccccc1/C=C/CN1CCCC(CO)(Cc2cccc(Cl)c2)C1 (stereo unspecified) | 5% |
| Cc1cccc(NC(=O)NNC(=O)CCc2ccccc2)c1 | 4% |

(next part)
VDR inh,Molecule
8%,Cc1csc(SC(C)C(=O)NCC(=O)Nc2ccc(F)c(F)c2F)n1 (stereo unspecified)
-19%,CCN(c1ccccc1)S(=O)(=O)c1ccc(OCc2c(C)noc2C)cc1
-12%,Cc1ccc(OCC(O)CNC(C)c2ccccc2)cc1C (stereo unspecified)
-6%,O=C(Nc1ccccc1)C(Cc1ccccc1)NC(=O)C12CC3CC(CC(C3)C1)C2 (stereo unspecified)
3%,N#C/C(C(=O)N1CCOCC1)=C1/SC(Cc2ccc(F)cc2)C(=O)N1c1ccccc1 (stereo unspecified)
-8%,COc1ccc(/C=N/n2cnn(Cc3ccccc3Cl)c2=S)cc1OC
-7%,Cc1ccccc1-n1c(SCC(=O)Nc2c(C)cccc2C)nc(O)cc1=O
8%,CC(C)C(=O)NNC(=O)CN1CCN(c2nc(-c3ccccc3)cs2)CC1
-9%,COc1ccc(Cl)cc1NC(=S)N(Cc1ccc(C(=O)O)cc1)Cc1ccc(OC)c(OC)c1
-17%,O=C(CCc1nc2cccnc2n1Cc1cccs1)Nc1cccc(Cl)c1
-4%,COc1ccc(/C=C/C(=O)OCC(=O)NCCC2=CCCCC2)cc1S(=O)(=O)N1CCOCC1
2%,Cc1cc(C)cc(NC(=O)c2cc(S(=O)(=O)N3CCCC3)ccc2F)c1

Next results follow.
VDR inh,Molecule
-6%,Cn1nnnc1SCc1ccccc1F
-3%,CN(CC(=O)Nc1ccccc1F)Cc1cccs1
-21%,COc1cc2c(cc1NC(=O)CN1CCN(S(=O)(=O)c3ccccc3F)CC1)oc1ccccc12
6%,c1ccc(-c2nc3cccnc3nc2-c2ccccc2)cc1
7%&-3%,CC(C)=CCC/C(C)=C/CC/C(C)=C/CC/C(C)=C/CC/C(C)=C/CC/C(C)=C/CC/C(C)=C/CC/C(C)=C/CC/C(C)=C/CO
-19%,O=C(O)C[C@H]1c2cc(F)ccc2S(=O)(=O)N1C1CCCCC1
8%,CN(Cc1ccccc1)c1ccc(-c2nc(-c3ccncc3)no2)cc1[N+](=O)[O-]
-4%,CC(C)c1ccc(OC(=O)c2cc(-c3ccccc3)on2)cc1
14%,Cc1cc(C)c(S(=O)(=O)N(CC(=O)N2CCCC2)C2CCCCC2)c(C)c1
-20%,Cc1cccc(N2CCN(C(=O)c3ccccc3NC(=O)C3CCCCC3C(=O)O)CC2)c1 (stereo unspecified)
-11%,O=C(c1csc(Nc2cccc3ccccc23)n1)N1CCCC1
0%,CN(CC(=O)Nc1cc(S(=O)(=O)N2CCCC2)ccc1Cl)Cc1cccs1

(listing goes on)
VDR inh,Molecule
0%,CCN(CC)S(=O)(=O)c1ccc(Cl)c(C(=O)OC)c1
0%,CCOC(=O)c1ccc(-n2ncc(C(=O)OCC)c2N)cc1
14%,O=C(COc1ccc(C(=O)O)cc1)Nc1cccc(C(F)(F)F)c1
0%,O=C1OC2(O)C3C4C=CC(C4)C3C(=O)N2c2ccccc21 (stereo unspecified)
-7%,COc1cc(C(=O)OC(C)CN2CCCCC2)cc(OC)c1OC (stereo unspecified)
-12%,CCCn1c(SCC(=O)Nc2cccc(C(=O)OCC)c2)nnc1-c1ccoc1C
?,O=C(NCCSc1ccc(Br)cc1)c1ccccc1
-8%,COc1ccc(NC(=O)CC2C(=O)N(c3ccc(C)cc3)C(=O)N2C2CCCCC2)cc1 (stereo unspecified)
-3%,COc1ccc(NC(=O)CN(C)C(=O)CSc2ccc3c(c2)OCCO3)cc1
3%,Cc1cc(NC(=O)CCC(=O)N(Cc2ccco2)C(C(=O)NC2CCCC2)c2ccc(F)cc2)no1 (stereo unspecified)
0%,CCn1c(CNC(=O)Cc2ccc(OC)cc2)nnc1SCC(=O)Nc1nccs1
-16%&1%,CC(C)C[C@H](NC(=O)[C@H](Cc1ccccc1)NC(=O)CNC(=O)CNC(=O)[C@@H](N)Cc1ccc(O)cc1)C(=O)N[C@@H](CCCN=C(N)N)C(=O)N[C@@H](CCCN=C(N)N)C(=O)N[C@@H](CCC(N)=O)C(=O)N[C@@H](Cc1ccccc1)C(=O)N[C@@H](CCCCN)C(=O)N[C@H](C(=O)N[C@H](C(=O)N[C@H](C(=O)O)[C@@H](C)O)C(C)C)C(C)C

Additional entries follow.
VDR inh,Molecule
2%,CCOc1ccc(-c2nnc(SCC(=O)NC(C)(C)C)nc2-c2ccc(OCC)c(OC)c2)cc1OC
-1%,CC1CCc2ccc(F)cc2N1S(=O)(=O)c1cccs1 (stereo unspecified)
-1%,Cc1cc(C)n(CCNc2nc3nonc3nc2N2CCCCC2)n1
6%,COc1ccc(C(=O)CSc2ccccc2C(=O)O)cc1
-17%,CCN(Cc1nc2cc(Cl)ccc2c(=O)[nH]1)C(=O)C1CC(=O)N(c2cccc3ccccc23)C1 (stereo unspecified)
3%,COc1ccc(-n2c(=O)c3c4c(sc3n(C)c2=O)CN(C(C)=O)CC4)cc1
-23%,NNC(=O)C1CC(O)CN1S(=O)(=O)c1ccc2ccccc2c1 (stereo unspecified)
18%,CCc1nn2c(=O)cc(COC(=O)c3ccc(NC(=O)COc4ccccc4C)cc3)nc2s1
-11%,COc1cccc(NC(=O)CCNS(=O)(=O)c2cccc3nonc23)c1
12%,COCCn1c(Cc2ccccc2)nnc1SCC(=O)Nc1cc(C)on1
6%,CC(=O)N1CCN(C(=O)CSc2cc(C)c(Br)cc2C)CC1
2%,COc1ccc(N2C(=S)NC3CS(=O)(=O)CC32)cc1 (stereo unspecified)

Next section:
VDR inh,Molecule
13%,Cc1ccc(CSC2=Nc3ccccc3C3=NC(CC(=O)NCc4cccs4)C(=O)N23)c(C)c1 (stereo unspecified)
13%,CCCNC(=O)CN(CCc1ccccc1)S(C)(=O)=O
11%,O=C(Nc1ccc2nc(SCC(=O)N3CCc4ccccc43)sc2c1)c1ccc(F)cc1
25µM*,CCOc1cc(/C=C(\C#N)C(=O)Nc2cccc(C(=O)O)c2)cc(Br)c1OC(=O)c1ccc(OC)cc1
-13%,O=C(c1cc2ccccc2cc1O)N1CCCC1
10%,Cc1csc2nc(COC(=O)c3ccccc3NC(=O)c3cccc(Br)c3)cc(=O)n12
-8%,Cc1[nH]c2ccccc2c1C(=O)COC(=O)C1CC(=O)N(Cc2ccco2)C1 (stereo unspecified)
-29%,COC(=O)c1cc(-c2cccs2)nc2ccccc12
-2%,CCOc1ccccc1NC(=O)CN1CCC(C(=O)c2ccc(OC)cc2)CC1
-4%,COc1cc(-c2nnc(SCC(=O)N(Cc3ccccc3)C(C)(C)C)o2)cc(OC)c1OC
9%,Cc1ccnc(NC(=O)C2CCN(S(=O)(=O)c3cccc(C(F)(F)F)c3)CC2)c1
8%,Cc1ccc(NC(=O)COC(=O)c2ccc(OCc3c(C)noc3C)cc2)cc1S(=O)(=O)N1CCOCC1

(more compounds)
VDR inh,Molecule
-12%,CCOc1cc(NC(=S)NCc2ccco2)c(OCC)cc1NC(=O)CC
-5%,COc1ccc2c(c1)CCc1c(C(=O)Nc3ccccc3C(F)(F)F)noc1-2
11%,CCCC(=O)Nc1ccc(C(=O)NCCCn2ccnc2)cc1
-6%,Cc1cccc(-n2c(SCC(N)=O)nc3c(c2=O)C2(CCCC2)Cc2ccccc2-3)c1
-6%,Clc1cccc(OCCN2CCOCC2)c1
-4%,CC(C)C(=O)Nc1nnc(CSCc2ccccc2F)s1
-19%,COc1ccc(C(=O)Nc2c(O)ccc3ccccc23)cc1
1%,c1ccc2c(SCc3cn4ccccc4n3)nncc2c1
-3%,Cc1ccc(CN(C(=O)c2ccc(C(C)(C)C)cc2)c2ccccn2)o1
-4%,Cc1c(CNCCCc2ccccc2)c(C(=O)O)c(C)n1Cc1ccccc1
6%,O=C(CS(=O)(=O)c1c[nH]c2ccccc12)Nc1ccc2c(c1)OCCO2
-10%,C[C@@H]1CCC[C@@]2(O[C@@H](CCO)C[C@H](O)[C@H]2O)O1

Going on with the list:
VDR inh,Molecule
3%,COc1ccccc1CCNC(=O)CN1C(=O)NC2(CCCC2)C1=O
-11%,O=C(CN1CCCc2ccccc21)N/N=C/c1c(O)ccc2ccccc12
-17%,Cc1cccnc1NC(=O)CNC(=O)C12CC3CC(CC(C3)C1)C2
-7%,CCn1nc(C(=O)NNS(=O)(=O)c2ccc(C)cc2)c2ccccc2c1=O
-6%,COc1ccc(CC(=O)Nc2cccc(/C(C)=N/NC(=O)C3(C)CC3(Br)Br)c2)cc1 (stereo unspecified)
-2%,CC[C@@H]1C/C=C\Cc2ccccc2[C@H](C(=O)C[C@H](O)CC(C)=O)OC1=O
-11%,COc1ccc(CCNC(=O)c2cnn3cccnc23)cc1OC
0%,COC(=O)c1cccc(NC(=O)CSc2nc3cccnc3n2C)c1
0%,COc1ccc(-c2cc3c(=O)n(CC(=O)Nc4cccc(Cl)c4)nc(C)n3n2)cc1
10%,CCOC(=O)c1ccc(N(CC(=O)NC2CCCC2)C(=O)CNC(=O)c2ccco2)cc1
1%,CC[C@@]1(c2ccccc2)NC(=O)N(C)C1=O
4%,CC(c1ccon1)N(C)Cc1cn(Cc2ccccc2)nc1-c1ccc2c(c1)OCO2 (stereo unspecified)

(continued)
VDR inh,Molecule
-16%,COc1ccc(C(=O)Nc2ccc(S(=O)(=O)Nc3cc(C)nc(C)n3)cc2)cc1OC
-2%,CC(C)N(CCCNC(=O)C1CCN(C(=O)c2cc3sccc3n2C)CC1)Cc1ccccc1
-11%,Cc1sc2ncnc(N3CCN(S(=O)(=O)c4ccccc4)CC3)c2c1C
0%,O=C(N/N=C/c1cccc([N+](=O)[O-])c1)c1ccncc1
7%,Cc1ccc(C)c(N2CCN(CCCNC(=O)Nc3cc(Cl)ccc3C)CC2)c1
10%,CN1CCc2nc(SC(C(=O)O)c3ccccc3)c(C#N)c(-c3cccs3)c2C1 (stereo unspecified)
?,O=C(Nc1cccc([N+](=O)[O-])c1)c1cc2ccccc2cc1O
6%,Cc1cc(Cl)ccc1N1C(=O)CC(NNC(=O)c2cccnc2)C1=O (stereo unspecified)
-5%,COc1cccc(C2=NOC(C(=O)N3CCN(c4ccccc4)CC3)C2)c1OC (stereo unspecified)

These rows are one share of the data. The share of hits here may be higher or lower than overall.
